Bioassay records: PubChem BioAssay, several laboratories
Mtb betalactam: beta-lactam sensitization of Mtb H37Rv, H37Rv; actives 0.27% (n = 330,000); inhibition, % at 25 µM; AID 434955, 2010; M. tuberculosis H37Rv growth with meropenem, percent inhibition; hits of this screen are not shown here;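 active = about 74% or more and at least 40 points above the plate without the antibiotic, then above 30% in a dose series; inconclusive = first-round hits that could not be retested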;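 also: growth measured after seven days incubation then overnight dye step; 0% = bacteria only wells and 100% = bacteria with antibiotic; twin plates without the antibiotic show which effects depend on it; some results filed as inactive read as strong as hits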
RecA splice inh: Mtb RecA intein splicing inhibitors, primary screen, biochemical, fluorescence, HTS; inhibition, %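 (about 9 µM by stock and volumes)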; actives 0.75% (n = 290,000); cell-free RecA intein splicing; in the data active = inhibition above about 30%; inconclusive = no clear call, values can overlap the other calls;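 also: 0% = vehicle wells and 100% = reference inhibitor control wells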
Target sequence (P9WHJ3 whole entry, looked up, canonical isoform): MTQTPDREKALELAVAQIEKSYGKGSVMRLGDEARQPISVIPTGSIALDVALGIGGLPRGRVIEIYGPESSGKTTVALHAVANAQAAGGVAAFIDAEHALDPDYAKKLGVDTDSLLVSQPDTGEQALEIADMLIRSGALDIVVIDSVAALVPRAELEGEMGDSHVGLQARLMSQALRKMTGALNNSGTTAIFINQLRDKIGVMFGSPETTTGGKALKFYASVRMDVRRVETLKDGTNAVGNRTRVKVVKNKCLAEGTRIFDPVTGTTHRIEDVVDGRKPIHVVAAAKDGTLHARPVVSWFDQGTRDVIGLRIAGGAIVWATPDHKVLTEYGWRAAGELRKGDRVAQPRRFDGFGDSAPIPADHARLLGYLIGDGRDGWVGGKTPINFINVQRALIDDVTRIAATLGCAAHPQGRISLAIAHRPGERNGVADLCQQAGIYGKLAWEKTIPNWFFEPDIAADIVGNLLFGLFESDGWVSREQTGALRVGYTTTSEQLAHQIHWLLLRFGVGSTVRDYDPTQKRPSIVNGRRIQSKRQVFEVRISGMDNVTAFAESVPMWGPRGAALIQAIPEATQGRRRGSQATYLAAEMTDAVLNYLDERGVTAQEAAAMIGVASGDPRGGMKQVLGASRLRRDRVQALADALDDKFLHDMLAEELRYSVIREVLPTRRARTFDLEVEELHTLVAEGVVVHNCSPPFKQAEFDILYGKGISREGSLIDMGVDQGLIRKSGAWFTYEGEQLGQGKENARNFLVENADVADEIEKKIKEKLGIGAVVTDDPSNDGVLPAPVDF
YopH PTP inh: YopH tyrosine phosphatase inhibitors, primary screen, biochemical, fluorescence Ex485/Em525 | inhibition, %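 (about 10 µM by stock and volumes)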 | actives 0.16% (n = 140,000) | AID 898, 2007;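 active = inhibition of 50% or more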;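 also: controls were vehicle for no effect and minimum signal wells for full effect; inactives centre near -20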
Mtb H37Rv: M. tuberculosis H37Rv growth inhibitors, H37Rv strain (AID 1626); inhibition, % at 10 µM, or IC50 in µM where a hit was titrated; M. tuberculosis H37Rv growth inhibition; higher % means a stronger effect; actives 0.95% (n = 220,000);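 active = confirmed in a dose series; inconclusive = inhibition above 80% but not taken into the dose series; inactive = below 80% or under 30% at every dose of the series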;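 also: bacteria incubated seven days before Alamar blue readout; 0% = bacteria only wells and 100% = bacteria with antibiotic wells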
Arbovirus anti: antivirals against arbovirus infection, primary screen, cell-based, full library, 10K replicate subset. arbovirus infection cell-based antiviral screen. inhibition, % at 10 µM. actives 0.37% (n = 200,000);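 active = inhibition from about 30%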;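 also: bluetongue infection of BSR cells; cell survival read as ATP light after 72 h; 0% = infected wells without compound and 100% = uninfected wells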
Arbovirus anti repeat: further read-out of Arbovirus anti, marked with its call; inhibition, %; measured here: 10K subset replicate screen; many hits read low in the repeat;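 first of two repeat runs on a subset; 0% = infected and 100% = uninfected wells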
* marks the source's active call; other numbers are inactive results; ? = inconclusive; · = not tested or not shown.

SMILES	Mtb betalactam	RecA splice inh	YopH PTP inh	Mtb H37Rv	Arbovirus anti	others
Cc1ccc(S(=O)(=O)N2CCN(C(=O)CN3C(=O)NC4(CCOc5ccccc54)C3=O)CC2)cc1 (stereo not drawn)	-7	0.7	1	1%	-4
CN(C)CCn1c(C(=O)Nc2ccccc2)cc2ccccc21	0	-0.5	-45	-1%	-14
CC(C)C(=O)N1N=C2CCCCC2C1(O)C(F)(F)F (stereo not drawn)	3	3.8	·	-6%	19
COC(=O)c1cnn(-c2nc(OC)cc(OC)n2)c1C	8	-14	-1	5%	-7
Cc1c(C(=O)O)nnn1-c1ccccc1	-8	-0.6	-48	-5%	8
CN1N=C2c3ccccc3CCCC2C1c1ccc(F)cc1 (stereo not drawn)	12	5.0	·	13%	·
CC1CN(C2CCN(C(=O)c3ccccc3)CC2)CC(C)O1 (stereo not drawn)	1	1.4	-24	-4%	3
O=C(NNC(=O)C1CCCO1)c1ccccc1Cl (stereo not drawn)	-9	0.5	-22	-8%	1
CC1CCCC(C)N1C(=O)COC(=O)Cc1c[nH]c2ccccc12 (stereo not drawn)	-13	-1.0	·	·	·
COc1ccc(C(CC(=O)O)NC(=O)c2ccco2)cc1OC (stereo not drawn)	-6	-4.7	-30	-2%	8
Cc1cccc(-n2cnc(C(=O)NNC(=S)Nc3ccc(Cl)cc3)c2)n1	-4	-1.9	·	3%	-12
CC(C)c1ccc(C(=O)N2CCN(c3cnn(C)c(=O)c3Cl)CC2)cc1	-4	1.8	·	-4%	-2
O=C(Nc1c(C(=O)Nc2ccc3c(c2)OCCO3)cnn1-c1ccccc1Cl)c1ccco1	-3	4.8	-24	1%	-1
COc1cccc(C(=O)Nc2nnc(C(C)C)s2)c1	-2	0.4	38	-3%	3
O=C1CCCC(=O)C1CS(=O)(=O)c1ccccc1	-4	5.4	·	0%	3
Cn1ncc([N+](=O)[O-])c1C(=O)NC1CCCCC1	6	-1.5	·	·	·
COc1cc(C(=O)c2ccccc2Cl)c([N+](=O)[O-])cc1OC	4	0.9	·	5%	-2
CSc1ccc(OC2CCN(Cc3ccccc3)CC2)cc1	1	4.7	-4	4%	-6
COc1ccc(Nc2nc3c(C)cccc3cc2C#N)c(OC)c1	-9	-5.4	-36	3%	-9
O=C(COc1ccccc1)Nc1ncc2c(n1)CCCC2=O	1	-0.9	2	-3%	3
Nc1c(N(CCO)C(=O)/C=C/c2ccco2)c(=O)[nH]c(=O)n1Cc1ccccc1	-1	·	·	-2%	22
COc1cc(/C=C/c2cc(OC(C)=O)c3ccccc3n2)c(OC(C)=O)c([N+](=O)[O-])c1	-5	2.6	-11	1%	2
O=c1cc(CN2CCN(C/C=C/c3ccccc3)CC2)c2cc(O)c(-c3ccccc3)cc2o1	22	-7.5	-12	?	-1
COc1ccc(NC(=O)c2cccc(N3C(=O)C4C5C=CC(C6CC56)C4C3=O)c2)c(OC)c1 (stereo not drawn)	5	-2.0	·	·	·
Cc1noc(C)c1COc1cccc(C(=O)Nc2ccc3c(c2)OCO3)c1	-1	3.4	·	6%	-17
O=C(O)Cc1ccc2ccc3ccccc3c2c1	0	1.1	·	·	·
COc1cc(OC)cc(C(=O)n2nc(C)cc2C)c1	-1	2.5	-14	-4%	-2
COc1cc(CCC(=O)OCC(=O)Nc2ccc(C(N)=O)cc2)cc(OC)c1OC	-2	-0.5	·	-5%	9
CCCc1cc(=O)oc2cc(OCC(=O)Nc3ccc(S(N)(=O)=O)cc3)ccc12	6	2.0	·	·	·
O=C(CN1CCN(S(=O)(=O)c2ccc(F)cc2)CC1)Nc1ccc2c(c1)OCO2	-5	-1.1	-5	0%	-7
CCOC(=O)c1cc(-c2ccccc2)n(CC(=O)O)c1C	-5	·	-26	-11%	4
O=C(CN1CCCCC1)Nc1ccc(NC(=O)c2ccc(Cl)cc2)cc1Cl	5	0.8	-11	-4%	-8
O=C(CCc1nnc(-c2ccc3c(c2)OCO3)o1)NC(c1ccccn1)C(F)(F)F (stereo not drawn)	2	0.0	·	-11%	4
Cc1ccc(S(=O)(=O)N2CCCCC2)cc1NC(=O)COC(=O)c1c(F)cccc1F	-7	1.3	·	-7%	-1
C=C(C)C(=O)Nc1cccnc1Oc1ccc(F)cc1F	-8	-0.7	·	-4%	·
Cc1ccc(N(C)S(=O)(=O)c2cccc(C(=O)Nc3nc4ccccc4[nH]3)c2)cc1	10	6.3	-14	?	-26
CC(NC(=O)c1ccc(Br)cc1)c1ccccc1 (stereo not drawn)	1	-1.8	-27	-14%	-13
Cc1ccccc1N1CCN(C(=O)c2ccccc2NC(=O)C2CC=CCC2C(=O)O)CC1 (stereo not drawn)	6	-3.9	-18	-3%	11
COc1ccccc1N1CCN(C(=O)c2noc(C(C)C)c2[N+](=O)[O-])CC1	2	-9.5	·	·	·
CCOc1ccc(Cc2nnc(SCC(=O)c3ccc(OC)cc3)o2)cc1	89	0.6	-42	-2%	14	Arbovirus anti repeat=15
N#Cc1sc(NCc2cccc(Cl)c2)nc1Cl	5	6.3	·	·	·
COc1ccc(C(=O)NNC(=O)C(=O)NC(C)c2ccccc2)cc1OC (stereo not drawn)	14	-2.7	·	17%	16
Cc1ccc(NC(=O)CN(c2ccc(Cl)cc2)S(=O)(=O)c2cc([N+](=O)[O-])ccc2Cl)c(C)c1	-3	7.9	·	3%	-8
Cc1c(C(N)=O)sc2ncn(CC(=O)N3CCC(C)CC3)c(=O)c12	2	-2.1	6	-9%	5
Cc1noc(NS(=O)(=O)c2ccc(NC(=O)CCn3c(=O)oc4ccccc43)cc2)c1C	-3	0.7	-13	6%	7	Arbovirus anti repeat=1
CC1CCC(C(C)C)C(OC(=O)Cn2c(-c3ccc(Cl)cc3)[n+](C)c3ccccc32)C1 (stereo not drawn)	100	4.3	·	?	·
Cc1ccc(C(=O)N(Cc2cccnc2)Cc2cc3cc(C)ccc3n3nnnc23)cc1	4	-1.9	·	-1%	9
O=C(c1ccco1)N1CCN(C(=O)c2ccccc2NS(=O)(=O)c2ccc(F)cc2)CC1	-9	1.4	·	1%	4
Cc1cccc(C)c1NC(=O)CN(C)C(=O)c1cccc(S(=O)(=O)N2CCN(c3ccc(F)cc3)CC2)c1	-19	-0.6	·	·	·
COc1ccc(Cc2nc(-c3ccc(Br)o3)no2)cc1OC	-1	3.8	-52	5%	8	Arbovirus anti repeat=12
CCn1cc(S(=O)(=O)NCCc2ccccc2OC)cn1	6	1.0	·	·	·
Cc1ccccc1OCC(=O)N=Nc1c(O)n(C)c2ccccc12	5	-2.7	·	-3%	·
CCOC(=O)/C(=N\Nc1ccccc1Cl)N1CCN(Cc2ccccc2)CC1	5	12	-17	-3%	0
Cn1c(SCC(=O)Nc2ccccc2F)nnc1-c1cccnc1	?	1.5	-12	5%	3	Arbovirus anti repeat=13
COc1cc(/C=N/NC(=O)c2cc(-c3cccn3C)n[nH]2)cc(OC)c1OC	13	1.3	-13	2%	-7
O=c1c2[nH]c3ccc(Cl)cc3c2ncn1CCN1CCCCC1	1	·	-24	3%	-1
Fc1ccccc1N1CCN(c2nc3ccccc3n3nnnc23)CC1	-17	-7.4	-34	5%	2
COc1cccc(C2c3c(oc4ccc(F)cc4c3=O)C(=O)N2CCN2CCOCC2)c1OC (stereo not drawn)	6	1.3	-37	3%	3
Cc1nn(S(=O)(=O)c2ccc([N+](=O)[O-])cc2)c(C)c1Sc1ccccc1	-2	0.5	-38	7%	·
CC(C)(C)c1nc(Sc2ccc([N+](=O)[O-])cn2)n[nH]1	-8	-0.9	·	-4%	·

The list goes on, starting with the last 3 of the part before.
SMILES	Mtb betalactam	RecA splice inh	YopH PTP inh	Mtb H37Rv	Arbovirus anti	others
COc1cccc(C2c3c(oc4ccc(F)cc4c3=O)C(=O)N2CCN2CCOCC2)c1OC (stereo not drawn)	6	1.3	-37	3%	3
Cc1nn(S(=O)(=O)c2ccc([N+](=O)[O-])cc2)c(C)c1Sc1ccccc1	-2	0.5	-38	7%	·
CC(C)(C)c1nc(Sc2ccc([N+](=O)[O-])cn2)n[nH]1	-8	-0.9	·	-4%	·
O=C(NNC(=O)c1cccs1)Nc1cccc(Cl)c1	-11	4.0	-26	·	12
Cn1c(/C(C#N)=C/c2ccc(O)cc2)nc2ccccc21	-5	-1.7	·	20%	·
CC(=O)Nc1cccc(C(=O)OCCCOc2ccc(F)cc2)c1	-15	0.5	·	·	·
N/C(=N/OC(=O)c1ccc(Cl)cc1)c1ncc([N+](=O)[O-])s1	98	-7.0	·	?	·
O=C(O)c1cccc2c1/C(=N/O)c1ccccc1-2	-4	-6.9	·	·	·
Cc1ccc(NC(=O)CSc2nc(O)cc(=O)n2-c2ccc(C)cc2)cc1	-3	-0.9	·	·	·
CC(=O)N1CCN(S(=O)(=O)c2cccc(C(=O)NC3CCC(C)CC3)c2)CC1 (stereo not drawn)	-6	0.8	·	4%	9
Cc1ccc(NC(=O)CCSc2ccccn2)cc1	0	-0.1	8	3%	-2
COc1ccc(Nc2nnc(SCC(=O)Nc3ccc4[nH]c(=O)[nH]c4c3)s2)cc1	4	-2.6	·	4%	-4
O=C1NC(Cc2ccccc2)C(=O)N1Cc1cc([N+](=O)[O-])cc2c1OCOC2 (stereo not drawn)	-6	-2.4	·	-3%	11
CCCCn1c(N)c(N(CCOC)C(=O)c2nn(CC)c(=O)c3ccccc23)c(=O)[nH]c1=O	1	-0.5	·	·	·
CCn1cc(/C=N\NC(=O)Cc2ccc(Cl)cc2)cn1	9	-5.6	-13	1%	-2
CCCCn1c(=O)c(C=Nc2ccc(Cl)cc2)c(O)n(Cc2ccco2)c1=O	-1	·	-18	2%	-23
COC(=O)C1=C(c2cc3ccccc3o2)C[C@@H]2CC[C@H]1N2C(=O)NCc1ccco1	-3	-0.2	·	-1%	·
Cc1ccc(S(=O)(=O)NNC(=O)c2csnn2)cc1	-11	-5.3	-17	6%	-1
O=C(NCCO)Nc1ccc(Cl)cc1	0	-1.0	·	1%	1
COc1ccc(C2CC(C(F)(F)F)n3ncc(C(=O)Nc4c(C)n(C)n(-c5ccccc5)c4=O)c3N2)cc1 (stereo not drawn)	1	0.4	-30	10%	1
COc1ccccc1NC(=O)COc1ccc2c(c1)OCO2	5	0.0	·	·	·
Cc1cccc(C)c1NC(=O)c1ccc(-n2cncn2)nc1	-19	-0.1	-40	-5%	-8
CC1CN(C(c2ccco2)c2sc3ncnn3c2O)CC(C)O1 (stereo not drawn)	-3	-1.6	-48	0%	2

Six structures already listed, ordered by SMILES length, smallest number first.
SMILES	Mtb betalactam	RecA splice inh	YopH PTP inh	Mtb H37Rv	Arbovirus anti	others
Cc1ccc(NC(=O)CCSc2ccccn2)cc1	0	-0.1	8	3%	-2
Cc1noc(C)c1COc1cccc(C(=O)Nc2ccc3c(c2)OCO3)c1	-1	3.4	·	6%	-17
O=C(CN1CCCCC1)Nc1ccc(NC(=O)c2ccc(Cl)cc2)cc1Cl	5	0.8	-11	-4%	-8
COc1cc(/C=N/NC(=O)c2cc(-c3cccn3C)n[nH]2)cc(OC)c1OC	13	1.3	-13	2%	-7
O=C(CN1CCN(S(=O)(=O)c2ccc(F)cc2)CC1)Nc1ccc2c(c1)OCO2	-5	-1.1	-5	0%	-7
O=C(Nc1c(C(=O)Nc2ccc3c(c2)OCCO3)cnn1-c1ccccc1Cl)c1ccco1	-3	4.8	-24	1%	-1

Remaining list, next part:
SMILES	Mtb betalactam	RecA splice inh	YopH PTP inh	Mtb H37Rv	Arbovirus anti	others
Cc1cc(NS(=O)(=O)c2cc(Cl)sc2Cl)no1	0	0.2	·	·	·
Cc1cccc(NC(=O)CSc2nnc(CNC(=O)c3cccs3)o2)c1C	6	-0.1	·	8%	22
CC(Oc1ccccc1)C(=O)NCc1cccnc1 (stereo not drawn)	1	0.7	-26	-2%	3
Cc1cccc(NS(=O)(=O)c2cccc3nonc23)c1	1	-4.3	·	-2%	8
O=C(/C=C/c1ccc(OCCCF)cc1)N1CCN(Cc2ccccc2)CC1	-7	3.2	·	·	·
Cc1ccc(N(C(=O)CCC(=O)Nc2cc(C)on2)C(C(=O)NC2CCCC2)c2ccncc2)cc1 (stereo not drawn)	-4	-0.8	-9	·	-2
N#Cc1nc(COc2ccc(F)cc2)oc1N1CCCC1	-1	2.6	-28	3%	5
COC(=O)c1cc2oc(C)cc2n1CC(=O)N(C)c1ccccc1	11	-1.2	-17	-4%	-2
CCC1Oc2ccccc2N(CC(=O)NC2CCCCC2)C1=O (stereo not drawn)	-2	-2.2	·	·	·
COc1ccc(C2=C(C#N)C(=O)OC2)cc1	9	-3.8	-14	-10%	-8
CCCCC(NC(=O)c1cccc(Br)c1)C(=O)O (stereo not drawn)	0	-6.8	·	-3%	2
COc1ccc(-n2c(SCC(N)=O)nnc2-c2cccnc2)cc1	-7	-1.1	9	-3%	-4

This is a subset; rates above refer to the full screens.
